Beta apoptosis = inhibitors of cytokine-induced beta cell apoptosis, primary screen, luminescence | protection from apoptosis, % (test concentration not listed) | AID 435005, 2010 | INS-1E cytokine-induced death, ATP luminescence, 48 h; percent of positive-control rescue, neutral wells zero | 300,000 tested, 0.8% active;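 active = all replicates at 75% or more, or half of them and the mean; inconclusive = half reach 75% but not the mean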;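 also: 0% = cytokine-treated negative control wells and 100% = positive control rescue; higher means more ATP so stronger rescue from cytokine killing; wells of about 40 µL received 100 nL stock; the first replicate is given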
AF4-AF9 inh = inhibitors of AF4 peptide binding to AF9, primary screen, biochemical, AlphaScreen, biotin-AF4 peptide, FLAG-AF9, single point. Protein AF-9 (Homo sapiens), P42568. inhibition, % at 10 µM. AID 651704, 2012. 350,000 tested, 0.47% active;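 active = every replicate reaching a set inhibition limit, whatever the replicate mean, cut at about 25% in these data; inconclusive = mean inhibition reaches that limit but some replicates miss it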;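 also: 0% = plate neutral control median and 100% = total signal loss; the record names both 10 and 1 µM as test concentration; the first replicate is given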
Target sequence (P42568 whole entry, looked up): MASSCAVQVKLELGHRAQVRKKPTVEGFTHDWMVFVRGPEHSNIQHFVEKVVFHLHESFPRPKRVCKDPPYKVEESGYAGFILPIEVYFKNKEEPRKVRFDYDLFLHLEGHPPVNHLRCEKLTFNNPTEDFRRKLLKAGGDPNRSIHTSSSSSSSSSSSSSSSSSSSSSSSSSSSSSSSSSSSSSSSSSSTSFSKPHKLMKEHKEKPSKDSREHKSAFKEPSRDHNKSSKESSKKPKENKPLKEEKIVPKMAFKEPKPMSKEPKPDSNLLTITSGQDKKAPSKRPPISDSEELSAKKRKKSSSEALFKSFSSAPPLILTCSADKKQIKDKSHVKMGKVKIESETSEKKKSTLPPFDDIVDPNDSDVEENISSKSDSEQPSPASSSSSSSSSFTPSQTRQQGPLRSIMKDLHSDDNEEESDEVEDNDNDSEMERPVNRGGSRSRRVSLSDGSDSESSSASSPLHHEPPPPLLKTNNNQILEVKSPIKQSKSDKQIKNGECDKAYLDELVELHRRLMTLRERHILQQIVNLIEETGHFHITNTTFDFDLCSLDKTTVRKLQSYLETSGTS
RanGTP-Imp inh = inhibitors of RanGTP-importin-beta interaction, primary screen, biochemical, FRET, CFP-Ran, YFP-importin-beta, homogeneous. Ran GTPase (GTP-bound) - importin-beta complex. cell-free CFP-Ran/YFP-importin-beta FRET ratio. inhibition, % (concentration not given with the values). 300,000 tested, 1.1% active. AID 2216, 2009;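 active = most replicates above 15%; inconclusive = exactly half above 15%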;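 also: 0% = DMSO wells and 100% = Ran loaded with GDP instead of GTP; wells of about 40 µL received 100 nL stock; the first replicate is given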
A1 inh = caspase 3/7 activation in MEF A1-2A-BIM cells, primary screen, A1 inhibitor project, cell-based, luminescence, HTS. Caspase-Glo 3/7 luminescence, 3 h; percent of clofoctol response, vehicle zero. caspase activation, % (no concentration beside the values). 330,000 tested, 0.066% active. AID 2462, 2010;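 active = over half of replicate activation scores above 10%, or exactly half above 10 with the replicate mean above 10; inconclusive = replicate mean below 10 yet half the replicates above 10; inactive = over half of replicates below 10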;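 also: wells of about 30 µL received 50 nL stock; many hits fall short of the cut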
LANA-H2A inh = blockers of LANA interaction with H2A/H2B – biochemical, FP readout, HTS, primary screen | Protein LANA1 (Human herpesvirus 8 type P (isolate GK18)), Q9QR71 | cell-free LANA-H2A/H2B peptide, fluorescence polarization | inhibition, % (no concentration beside the values) | 320,000 tested, 0.6% active; in the data active = inhibition mostly above about 10%, no sharp cut-off; inactive = mostly below about 6.7%;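 also: stock transfer was 7.5 nL into about 10 µL; 0% = median of vehicle wells and 100% = median of positive control wells; one replicate is shown; the record names a cut of 25% in any replicate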
Calb FLC = C. albicans growth inhibition with fluconazole, primary screen, CaCi-2 strain, Alamar Blue fluorescence; C. albicans CaCi-2 (fluconazole-resistant clinical isolate) + fluconazole, 48 h; growth inhibition, % (concentration not given with the values); 300,000 tested, 0.57% active; AID 1979, 2009;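 active = most replicates above 75%; inconclusive = exactly half above 75%; inactive = most below 75%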;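 also: all wells also contain fluconazole at 8 µg/ml as a sub-toxic cotreatment; 0% = median of DMSO wells and 100% = median of geldanamycin control wells; wells of about 8 µL received 7.5 nL stock; the first replicate is given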
Vif A3G = inhibitors of Vif binding to APOBEC3G peptide, primary screen, biochemical, TR-FRET, GST-Vif 1-94, biotin-A3G peptide, dose response retest (AID 1117319). TR-FRET GST-Vif / biotin-A3G peptide binding; higher % means a stronger effect; test concentration not given here; strong numbers were not always called active. inhibition, %; hits with a dose series show IC50 in µM. 260,000 tested, 0.57% active;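 active = above the screen mean plus three standard deviations and confirmed in dose response; inconclusive = results disagree or hit not tested in dose response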;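 also: Vif residues 1-94 fused to GST binding biotinylated APOBEC3G peptide 110-148; 0% = full assay without inhibitor and 100% = GST in place of GST-Vif; retest series ran down from 100 µM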
T cruzi inh = inhibitors of intracellular T. cruzi growth, primary screen, luminescence, NIH3T3 host cells. 300,000 tested, 1.4% active. AID 1885, 2009. T. cruzi beta-gal in NIH3T3, 90 h. inhibition, % (no concentration beside the values);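 active = mean inhibition across valid replicates above about 55%, limit read from the data; inconclusive = mean below that limit but half or more replicates reach it; inactive = mean below it, under half of replicates reach it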;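 also: signal also drops with host cell toxicity which is not excluded here; 0% = plate median of DMSO wells and 100% = zero luminescence signal; higher percent means less beta-gal luminescence so fewer parasites; stock transfer was 50 nL into about 50 µL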
An asterisk follows results filed as active; ? = inconclusive; nt = no result given; & = joins results of further samples.

SMILES	Beta apoptosis	AF4-AF9 inh	RanGTP-Imp inh	A1 inh	LANA-H2A inh	Calb FLC	Vif A3G	T cruzi inh
CSc1nc2cc(F)c(F)cc2n1C	0.8	nt	9.8	-1.3	-1.5	-1.2	-4.0%	-13.5
O=C(NCc1ccc(F)cc1)C1CCN(S(=O)(=O)N2CCCC2)CC1	-2.5	11.1	-2.7	0.4	0.0	-10.6	10.3%	4.3
CCCNC(=O)COc1ccccc1[N+](=O)[O-]	2.0	nt	7.3	0.0	0.8	12.0	nt	-17.3
COC(=O)CCC(=O)NC(=S)Nc1c(C)cccc1C	0.4	3.9	2.7	0.3	2.5	-4.8	10.9%	-14.8
O=C(Nc1nc(-c2ccccn2)cs1)c1cccc(-n2cnnn2)c1	76.0*	-5.4	0.6	0.4	-1.1	-15.1	nt	62.8*
COc1cc(C(C2C(=O)CC(C)(C)CC2=O)C2C(=O)CC(C)(C)CC2=O)ccc1O	-3.3	-1.1	-0.2	0.4	-2.6	-1.9	-3.9%	-0.3
CCCc1nnc(NC(=O)c2ccncc2)s1	-0.1	-3.6	2.9	-2.4	1.0	6.5	5.8%	-5.8
c1ccc(C2NCCn3cccc32)cc1 (stereo not given)	-9.4	nt	1.5	-0.3	1.3	0.0	-2.9%	3.3
NC(=O)c1ccsc1NC(=O)COC(=O)c1nc(Cl)ccc1Cl	-0.4	-2.2	-3.4	1.5	-0.1	3.9	5.9%	-5.5
CC(C)(C)NS(=O)(=O)c1ccc(NC(=O)C(Sc2ccccc2)c2ccccc2)cc1 (stereo not given)	16.1	nt	-3.4	0.5	1.8	?	-13.2%	55.8*
CC(=O)OC1CSC2c3ccccc3C(=O)N2Cc2sccc21 (stereo not given)	3.2	1.2	-2.4	0.0	0.6	-10.5	-2.0%	11.3
C[N+](C)(C)C/C=C1/COCO1	-1.0	nt	-1.8	0.6	-4.9	5.0	10.2%	-8.2
CN(C)CCCNS(=O)(=O)c1ccc(N2CCN(Cc3ccc4c(c3)OCO4)CC2)c([N+](=O)[O-])c1	22.8	14.3	0.8	-0.2	0.2	-9.1	nt	10.0
O=S(=O)(c1ccc(F)cc1)N1CCN(CC2CC3C=CC2C3)CC1 (stereo not given)	nt	-0.9	-1.6	0.3	-4.2	0.3	nt	6.5
O=C1NNC(c2ccccc2)=N/C1=C\c1ccc(Cl)cc1	2.6	11.7	3.0	?	3.2	5.1	19.0%	-5.1
O=C(COC(=O)c1ccc(NS(=O)(=O)c2ccc3c(c2)OCCO3)cc1)NC1CC1	-1.5	nt	?	-0.1	-4.8	12.4	2.0%	-12.8
COc1ccc(Cc2ccc(OC)c(N)c2)cc1N	4.8	3.6	6.8	-0.2	-2.6	-11.5	12.3%	3.1
CCc1c(C)sc(NC(=O)c2cc(C)no2)c1C#N	5.3	1.9	-0.7	-0.6	-5.7	16.8	-1.9%	-0.4
O=C(OCC(=O)c1ccc(Cl)s1)c1ccccn1	6.7	0.3	-1.5	0.7	4.7	-25.5	nt	13.5
Cc1ccc(C(=O)Nc2cc3c(cc2Cl)OCCCO3)cc1	1.9	nt	8.4	-1.2	1.2	-5.3	-6.2%	-8.2

Molecules from the list above containing an aryl thioether with sulfur outside any ring (two):
SMILES	Beta apoptosis	AF4-AF9 inh	RanGTP-Imp inh	A1 inh	LANA-H2A inh	Calb FLC	Vif A3G	T cruzi inh
CSc1nc2cc(F)c(F)cc2n1C	0.8	nt	9.8	-1.3	-1.5	-1.2	-4.0%	-13.5
CC(C)(C)NS(=O)(=O)c1ccc(NC(=O)C(Sc2ccccc2)c2ccccc2)cc1 (stereo not given)	16.1	nt	-3.4	0.5	1.8	?	-13.2%	55.8*

New compounds follow.
SMILES	Beta apoptosis	AF4-AF9 inh	RanGTP-Imp inh	A1 inh	LANA-H2A inh	Calb FLC	Vif A3G	T cruzi inh
Oc1ccc(O)c(-c2cnns2)c1	-25.8	nt	-0.5	0.5	-5.7	7.7	16.1%	-17.3
O=C(NC(=S)N(CCO)Cc1ccccc1)c1ccc(S(=O)(=O)N2CCCC2)cc1	2.9	0.5	1.5	0.1	-1.7	-9.4	-6.6%	8.3
COCCCNC(=O)CN1C(=O)/C(=C/c2ccccc2C)Sc2ccccc21	-2.1	-1.5	-1.4	-0.4	0.0	58.7	3.8%	0.5
O=C(Nc1ccc2c(c1)OCO2)C1(S(=O)(=O)c2ccc(Cl)cc2)CC1	0.7	nt	1.7	0.2	-7.2	39.2	3.2%	-15.9
O=C(c1ccc(Cn2c(=O)[nH]c3ccccc3c2=O)cc1)N1CCN(c2ccccc2)CC1	3.0	nt	-4.3	0.6	1.7	42.7	-0.8%	12.0
COc1ccccc1C1C(C(C)=O)=C(O)C(=O)N1c1ccc(O)cc1 (stereo not given)	-1.6	-9.7	-0.3	0.9	0.0	2.2	-2.6%	-5.8
COC(=O)CCC(=O)NNC(=O)CCCOc1ccc(Cl)cc1Cl	-6.5	nt	0.4	-0.1	1.6	4.2	1.8%	-3.7
O=C(CSc1nnc(NC(=O)c2ccco2)s1)NCc1ccc2c(c1)OCO2	6.2	1.6	-1.4	0.3	-3.6	-1.6	?	-12.2
NS(=O)(=O)c1ccc(CCNC(=O)CC(c2ccccc2)c2ccccc2)cc1	-4.6	-3.1	-2.3	-0.9	-0.1	0.4	nt	-6.5
O=C(Cn1nnc2ccccc2c1=O)NCC1CCC(C(=O)O)CC1 (stereo not given)	1.0	-4.1	4.0	-0.2	-2.9	2.6	4.7%	-16.4
N#Cc1ccccc1NC(=O)CSc1n[nH]c(-c2ccco2)n1	-2.7	-3.0	4.4	0.3	0.8	5.1	nt	-21.3
COc1ccccc1NS(=O)(=O)c1cccc(C(=O)NN=C2CCCCCC2)c1	-6.2	nt	-11.7	2.4	2.0	-13.4	nt	-3.2
CC1=C(C(=O)OCC2CCCO2)C(c2cccc(C(F)(F)F)c2)C2=C(CC(c3ccco3)CC2=O)N1 (stereo not given)	-6.5	nt	5.2	0.9	-4.5	?	3.9%	19.9
Cc1ccc(-c2csc3ncnc(N4CCc5ccccc5C4)c23)cc1	9.0	nt	-0.5	-0.4	0.5	-2.8	nt	27.1
COc1cc(OC)cc(-c2cc(N)n(S(=O)(=O)c3cccc4nsnc34)n2)c1	2.6	12.6	6.1	2.0	4.4	-3.4	-4.9%	-5.4
Oc1ccc(Cl)cc1CNc1ccc(Br)cn1	4.1	nt	-1.6	-0.1	-3.6	-2.8	0.7%	-3.4
COC(=O)c1ccccc1S(=O)(=O)N1CCC(C(=O)OC(C)C(=O)Nc2ccccc2OC)CC1 (stereo not given)	0.8	-4.5	nt	0.0	7.6	nt	0.5%	nt
O=C(COc1ccc(Cl)cc1)Nc1ccccc1C(=O)NCc1cccnc1	-6.3	0.5	-1.2	0.3	1.9	18.1	nt	6.8
COC(=O)c1ccc(Oc2cc(C)nc(Cl)n2)cc1	-5.8	-1.7	?	0.9	2.0	21.6	0.6%	-7.2
Nc1c(C(=O)CSc2nnc(Nc3ccc(F)cc3)s2)c(=O)[nH]c(=O)n1C1CC1	3.6	-2.6	nt	0.0	0.9	nt	-5.0%	nt
COc1ccc(-c2n[nH]c(=S)n2-c2ccc(C)cc2)cc1OC	0.0	-5.9	-1.6	0.4	-16.0	6.0	nt	-2.8
COCc1[nH]c(=S)c(C#N)cc1C(=O)OC	-1.6	-5.6	-2.2	-0.1	4.4	2.8	19.8%	-4.8
CCOc1ccc(CC(=O)Nc2ccc(S(=O)(=O)N3CCCC3)cc2)cc1	-2.1	0.1	2.9	1.9	0.7	-8.6	nt	-7.5
CCCCn1c(=O)[nH]c(=O)c2c1ncn2Cc1ccco1	-5.7	-9.7	7.6	0.5	2.2	0.5	8.6%	-3.8
O=C(NNC(=S)Nc1ccc(Br)cc1)c1ccc(N2CCOCC2)c([N+](=O)[O-])c1	2.8	nt	1.4	-0.4	-1.7	13.5	0.7%	8.3
COc1ccc2c(=O)c3c(=O)n(Cc4ccco4)c(-c4cc(OC)c(OC)c(OC)c4)nc3oc2c1	10.4	nt	-1.9	1.9	3.9	1.3	8.2%&-4.0%	14.1
CC(C)CNC(=O)COC(=O)c1ccc(F)cc1Cl	-3.2	-6.1	-1.6	1.7	2.7	-2.4	-7.5%	-13.3
O=C(O)c1cccc(S(=O)(=O)Nc2ccc3oc(=O)sc3c2)c1	0.3	nt	-0.2	2.5	0.1	17.9	8.6%	-9.9
O=C(CCNc1ccc(F)cc1)c1cc2ccccc2o1	-6.3	-0.2	-2.7	0.3	-2.0	-2.5	-12.5%	72.7*
COc1ccc(CCn2c(-c3ccc(Cl)cc3)n[nH]c2=S)cc1OC	2.7	-4.9	0.7	0.2	-0.2	1.0	-2.0%	-16.6
O=C(Nc1cc(C(=O)Nc2ccccc2C(=O)O)cc(C(=O)Nc2ccccc2C(=O)O)c1)c1ccccc1	2.2	-5.1	0.0	0.6	5.0	6.3	nt	-14.0
CCCN(Cc1ccccc1)C(=S)Nc1ccc(OC(F)F)cc1	nt	nt	-3.2	-0.4	-0.7	-4.9	14.1%	-9.3
O=C(Nc1nc(=S)ss1)c1c(F)cccc1F	-9.5	nt	1.0	0.1	0.0	-1.2	-2.5%	0.4
Nc1cc(=O)[nH]c(SCC(=O)c2ccc(F)cc2)n1	-1.7	0.5	0.5	-0.1	-0.6	-2.4	-1.3%	1.9
COc1cccc(NC(=O)NCCC2=CCCCC2)c1	10.0	-2.9	-1.6	-0.1	4.0	-25.4	-2.3%	-1.2
Cc1cc(Cl)c2oc(C(=O)N(C)CC3CCOCC3)c(C)c2c1	-5.3	-3.5	5.1	-1.6	9.4	-2.1	nt	12.6
CCCCNC(=O)c1onc(CSc2ccccc2C)c1C(=O)O	-4.0	-0.8	?	-0.1	-0.8	-5.3	2.8%	3.9
CCCn1c(C(O)c2ccc(C)cc2)nc2ccccc21 (stereo not given)	-7.2	-1.0	-2.5	0.9	-2.3	2.1	-1.4%	-9.3
O=C(NC1CCCCCC1)c1ccc(Cl)c(S(=O)(=O)N2CCOCC2)c1	nt	0.7	2.5	-0.2	0.0	1.2	nt	-3.6
CCc1ccc(OCC(=O)NCc2ccco2)c(Br)c1	-7.1	-6.2	-2.5	-0.1	6.4	4.1	26.2%	5.3
C/C(=N\NC(=O)c1ccoc1C)c1ccc(Cl)s1	0.2	-0.8	-0.7	?	4.3	0.8	-1.0%	2.3
COCCNC(=O)CN1CCN(Cc2cccc(Cl)c2)C1=O	-3.8	-1.0	2.0	0.3	1.9	-0.2	1.2%	1.0
COc1cccc(NC(C)=[N+](C)CCNS(=O)(=O)c2ccc(Cl)cc2)c1	-2.2	2.8	-6.1	0.1	-2.7	-5.6	2.4%	30.2

Bioassay records: PubChem, several laboratories

An unsorted share of the library; any-hit rate near 4.3%.
